Screening data from PubChem.
VACV Venus inh = qHTS for Stage-Specific Inhibitors of Vaccinia Orthopoxvirus: Venus Reporter Primary qHTS; Vaccinia virus Venus reporter expression, fluorescence; Potency, µM (highest dose often 36.5 µM), inactives show at the highest dose activity change, negative = inhibition, most hits filed as inhibitors; actives 0.46% (n = 330,000); active means well fitted inhibition curve with a large enough effect; inconclusive means small, poorly fitted or top-dose-only effect; inactive means no such curve, though single readings can be large or run the other way; tested in A549 cells; also: nearly all actives have a fitted effect of over 30% in size; inactives centre near -10
VACV mCherry inh = qHTS for Stage-Specific Inhibitors of Vaccinia Orthopoxvirus: mCherry Reporter Primary qHTS; Vaccinia virus mCherry reporter infection, fluorescence; about a quarter of the inactives have no number; Potency, µM (highest dose often 36.5 µM), inactives show at the top dose activity change, negative = inhibition, hits mostly inhibitors; actives 0.63% (n = 310,000); AID 720579, 2013; active = well fitted inhibition curve with a large enough effect; inconclusive = small, poorly fitted or top-dose-only effect; inactive = no such curve, though single readings can be large or run the other way; tested in A549 cells; also: nearly all actives have a fitted effect of over 35% in size; inactives centre near -10
* hit, by the source's call; & = joins results of further samples; [ ] = dose if it differs, or a comment. % is scaled to controls: 0 for no effect and ±100 for the full control effect; potency is read from the fitted curve at half-maximal effect. This is a random part of the collection. Share with any hit: about 0.86%.

Sample of the layout, seven compounds:
What do the screens show for `CCCOc1ccc(/C=N/Nc2ccccc2[N+](=O)[O-])c(OCCC)c1`?
VACV Venus inh: -2.4%; VACV mCherry inh: -5.2%

Results for CCOc1ccc(CC(=O)Nc2c(C(=O)c3ccc(F)cc3)oc3ccc(Cl)cc23)cc1OCC ?
VACV Venus inh: -0.5%; VACV mCherry inh: 6.7%

What do the screens show for `CCc1cccc(CC)c1N(COC)C(=O)Cn1ccccc1=N`?
VACV Venus inh: -14.4%

Results for Cn1c(=O)oc2cc(S(=O)(=O)N3CCCC(C(=O)Nc4ccccn4)C3)ccc21 (configuration not stated) ?
VACV Venus inh: -3.9%; VACV mCherry inh: 14.1%

Results for COc1ccc(NC(=O)c2sc3nc(-c4cccnc4)ccc3c2N)cc1OC ?
VACV Venus inh: 1.6%[7.34 µM]; VACV mCherry inh: inactive[7.34 µM]

Results for COc1ccc(NC(=O)CN(C)S(=O)(=O)c2ccc3c(c2)n(C)c(=O)c(=O)n3C)cc1 ?
VACV Venus inh: -8.2%; VACV mCherry inh: inactive

What do the screens show for `CNC(=O)CSc1cn(CC(=O)N2CCCCCC2)c2ccccc12`?
VACV Venus inh: -2.6%; VACV mCherry inh: -5.0%

Main list, from the first entry:
What do the screens show for `CCCOc1ccc(/C=N/Nc2ccccc2[N+](=O)[O-])c(OCCC)c1`?
VACV Venus inh: -2.4%; VACV mCherry inh: -5.2%

Results for CCOc1ccc(CC(=O)Nc2c(C(=O)c3ccc(F)cc3)oc3ccc(Cl)cc23)cc1OCC ?
VACV Venus inh: -0.5%; VACV mCherry inh: 6.7%

What do the screens show for `CCc1cccc(CC)c1N(COC)C(=O)Cn1ccccc1=N`?
VACV Venus inh: -14.4%

Results for Cn1c(=O)oc2cc(S(=O)(=O)N3CCCC(C(=O)Nc4ccccn4)C3)ccc21 (configuration not stated) ?
VACV Venus inh: -3.9%; VACV mCherry inh: 14.1%

Results for COc1ccc(NC(=O)c2sc3nc(-c4cccnc4)ccc3c2N)cc1OC ?
VACV Venus inh: 1.6%[7.34 µM]; VACV mCherry inh: inactive[7.34 µM]

Results for COc1ccc(NC(=O)CN(C)S(=O)(=O)c2ccc3c(c2)n(C)c(=O)c(=O)n3C)cc1 ?
VACV Venus inh: -8.2%; VACV mCherry inh: inactive

What do the screens show for `CNC(=O)CSc1cn(CC(=O)N2CCCCCC2)c2ccccc12`?
VACV Venus inh: -2.6%; VACV mCherry inh: -5.0%

How did COc1ccc(-c2onc(C)c2-c2cnn(-c3ccccc3)c2)c(O)c1C do in these assays?
VACV Venus inh: -5.3%; VACV mCherry inh: inactive

What do the screens show for `CCCCCCCCCCCCS(=O)(=O)CCC(=O)O`?
VACV Venus inh: 21.0%; VACV mCherry inh: inactive

How did N#Cc1ccc(-c2cccs2)nc1SCc1ccc(Cl)cc1Cl do in these assays?
VACV Venus inh: -6.9%; VACV mCherry inh: -8.1%

What do the screens show for `O=C(CN(Cc1ccco1)C(=O)CNS(=O)(=O)c1ccc(F)cc1)NCc1ccc(F)cc1`?
VACV Venus inh: -15.9%

What do the screens show for `Cc1ccc(S(=O)(=O)N2CCN(C(=O)CCn3nc(C)c(C)c3C)CC2)cc1C`?
VACV Venus inh: -19.6%; VACV mCherry inh: inactive

What do the screens show for `O=C(CCl)Nc1cccc(-c2cnc3ccccc3n2)c1`?
VACV Venus inh: inconclusive; VACV mCherry inh: 11.2µM*

How did COc1cc2[nH]c3ccccc3c2cc1C do in these assays?
VACV Venus inh: -9.3%; VACV mCherry inh: inactive

How did O=C(COC(=O)C1CC(=O)N(Cc2ccco2)C1)c1ccc(OC(=O)c2ccco2)cc1 (configuration not stated) do in these assays?
VACV Venus inh: -6.6%; VACV mCherry inh: -15.0%

How did Cc1cccc(S(=O)(=O)N[C@@H]2CC[C@@H](CCNS(=O)(=O)c3ccccc3F)O[C@@H]2CO)c1 do in these assays?
VACV Venus inh: -24.0%; VACV mCherry inh: -28.1%

Results for O=C(O)CCc1nc2ccccc2c(=O)[nH]1 ?
VACV Venus inh: -10.0%; VACV mCherry inh: -14.2%

Results for Cc1cc(C)cc(NC(=O)[C@H](NC(=O)[C@@H]2Cc3ccccc3CN2)c2ccccc2)c1 ?
VACV Venus inh: -11.1%; VACV mCherry inh: -20.4%

How did CCOc1ccc(NS(=O)(=O)c2ccc(C(=O)NNC(=O)c3ccccc3O)cc2)cc1 do in these assays?
VACV Venus inh: inconclusive; VACV mCherry inh: 7.08µM*

How did CC(C)c1ccccc1NC(=S)N1CCN(S(=O)(=O)c2cccs2)CC1 do in these assays?
VACV Venus inh: -12.9%; VACV mCherry inh: inconclusive

Results for Cc1ccc(-c2nc(NC(=O)CSc3ccc4ccccc4n3)ns2)cc1 ?
VACV Venus inh: -18.5%&-9.4%; VACV mCherry inh: -0.6%&-12.4%

Results for CCC1Nc2ncnc(N3CCN(c4ccccn4)CC3)c2N(Cc2ccc(Br)cc2)C1=O (configuration not stated) ?
VACV Venus inh: inconclusive; VACV mCherry inh: -29.7%

Results for CC1(C)CC(=O)C2=C(C1)OC(N)=C(C#N)[C@@]21C(=O)N(CC(N)=O)c2ccccc21 ?
VACV Venus inh: -13.5%; VACV mCherry inh: -20.8%

Results for CCOc1ccccc1CNC(=O)CCn1ccc2cc(S(=O)(=O)N3CCC(C)CC3)ccc21 ?
VACV Venus inh: -22.8%; VACV mCherry inh: -23.5%

What do the screens show for `Cc1ccc(S(=O)(=O)CCC(=O)Nc2cc(Cl)ccc2-n2cncn2)cc1`?
VACV Venus inh: -8.9%; VACV mCherry inh: -11.9%

How did Cc1sc2c(c1C)c(=O)n(CCc1ccccc1)c(=O)n2Cc1ccc(C(C)(C)C)cc1 do in these assays?
VACV Venus inh: 1.8%; VACV mCherry inh: -1.6%

What do the screens show for `OCc1cn(-c2ccccc2)nc1-c1ccco1`?
VACV Venus inh: -4.0%; VACV mCherry inh: -9.7%

Results for COc1cccc(CC2(CO)CCCN(C(=O)c3cc[n+]([O-])cc3)C2)c1 (configuration not stated) ?
VACV Venus inh: -12.5%; VACV mCherry inh: inactive

What do the screens show for `O=S(=O)(c1ccccc1)c1nnn2c1nc(N1CCN(c3ccccc3)CC1)c1cc(Cl)ccc12`?
VACV Venus inh: -15.7%; VACV mCherry inh: -18.0%

What do the screens show for `O=C(NCC1CCC(C(=O)O)CC1)OCc1ccccc1` (configuration not stated)?
VACV Venus inh: 0.5%; VACV mCherry inh: -10.4%

How did O=C(CN1CCN(S(=O)(=O)c2ccc(F)cc2)CC1)Nc1ccccc1F do in these assays?
VACV Venus inh: -10.0%

How did CCN(C(=O)C(Cc1ccccc1)NS(=O)(=O)c1cccc2nsnc12)c1ccccc1 (configuration not stated) do in these assays?
VACV Venus inh: -16.9%; VACV mCherry inh: -12.0%

Results for COc1ccccc1Sc1ccccc1/C=N/NC(N)=O ?
VACV Venus inh: 3.8%; VACV mCherry inh: inactive

Results for Cc1ccc(C)c(CNC(=O)c2sc3ncnc(N(C)C4CCCCC4)c3c2C)c1 ?
VACV Venus inh: -9.0%; VACV mCherry inh: -1.0%

What do the screens show for `C/C(=N\NC(=O)Cn1ccc(C(F)(F)F)n1)c1ccc(N2CCOCC2)cc1`?
VACV Venus inh: -5.9%; VACV mCherry inh: inactive

What do the screens show for `COc1ccc([N+](=O)[O-])cc1NC(=O)CSc1ncccn1`?
VACV Venus inh: -3.7%; VACV mCherry inh: -5.8%

What do the screens show for `CC(C)(C)NC(=O)NC(=O)COC(=O)c1cccc(OC(F)F)c1`?
VACV Venus inh: -0.9%; VACV mCherry inh: inactive

How did COC(=O)C1=C(C)NC(=S)NC1c1ccc(N(CCCl)CCCl)cc1Cl (configuration not stated) do in these assays?
VACV Venus inh: -23.1%; VACV mCherry inh: inactive

What do the screens show for `COC(=O)C1=C(C)N(c2ccc(OC)cc2)C(=O)/C1=C\c1cccs1`?
VACV Venus inh: -6.4%; VACV mCherry inh: inactive

How did O=[N+]([O-])c1ccc2ccn(C3OCC(O)C(O)C3O)c2c1 (configuration not stated) do in these assays?
VACV Venus inh: 3.1%; VACV mCherry inh: -2.3%

What do the screens show for `CC1(C(=O)Nc2ccc3c(c2)OCCO3)CCC(=O)N1CC(F)(F)F` (configuration not stated)?
VACV Venus inh: 3.5%; VACV mCherry inh: 24.0%

Results for CCC1C2Cn3c(nc4ccccc43)C1N(C)O2 (configuration not stated) ?
VACV Venus inh: 6.5%; VACV mCherry inh: -10.8%

How did CC(=O)CSc1ncnc2sc3c(c12)CCC3 do in these assays?
VACV Venus inh: -20.4%; VACV mCherry inh: -3.1%

How did Cc1ccc(NC(=O)c2cccc(S(=O)(=O)N3CCN(c4ccccc4)CC3)c2)nc1 do in these assays?
VACV Venus inh: -11.1%; VACV mCherry inh: -27.8%

How did CCN(CC)C(=O)Cn1c(=O)n(CCCCCC(=O)NCc2ccccc2Cl)c(=O)c2sccc21 do in these assays?
VACV Venus inh: -6.1%; VACV mCherry inh: -11.3%

Results for O=C(CCN1CCCCC1)c1cccc(Cl)c1 ?
VACV Venus inh: -1.9%; VACV mCherry inh: -13.8%

What do the screens show for `CCc1ccc(NC(=O)c2cc(S(=O)(=O)N3CCCC3)c[nH]2)cc1`?
VACV Venus inh: inconclusive; VACV mCherry inh: -27.4%

Results for O=C(Nc1ccc(S(=O)(=O)NC2=NCCCCC2)cc1)c1cc(S(=O)(=O)N2CCOCC2)ccc1F ?
VACV Venus inh: -7.5%; VACV mCherry inh: inactive

Results for O=C(c1ccc(Cl)cc1Cl)N1CCSCC1 ?
VACV Venus inh: -1.9%; VACV mCherry inh: inactive

Results for Cc1nn(-c2ccccc2)c(Cl)c1C(=O)Nc1c(C)n(C)n(-c2ccccc2)c1=O ?
VACV Venus inh: -5.6%; VACV mCherry inh: inactive

Results for Cc1ccc2nc(C)cc(N/N=C/c3ccc(F)cc3)c2c1 ?
VACV Venus inh: -17.8%; VACV mCherry inh: -12.7%

What do the screens show for `Cc1cc(C)cc(NC(=O)[C@H]2O[C@@H]3OC(C)(C)O[C@@H]3[C@H]3OC(C)(C)O[C@H]32)c1`?
VACV Venus inh: 10.6%; VACV mCherry inh: -4.8%

What do the screens show for `CC(C)(CSc1ncccn1)NS(=O)(=O)c1ccccc1`?
VACV Venus inh: -5.9%; VACV mCherry inh: -5.9%

What do the screens show for `Cc1cc([N+](=O)[O-])ccc1NC(=O)c1ccco1`?
VACV Venus inh: 8.8%; VACV mCherry inh: inactive

How did CCCCN(C(=O)C1CC(=O)N(Cc2ccc(C)cc2)C1)c1c(N)n(CCCC)c(=O)[nH]c1=O (configuration not stated) do in these assays?
VACV Venus inh: -0.7%; VACV mCherry inh: inactive

Results for O=C(NCCCN1CCOCC1)c1nn(-c2ccccc2)c(=O)c2ccccc12 ?
VACV Venus inh: -10.0%; VACV mCherry inh: -6.8%

Results for COc1ccc(S(=O)(=O)n2nc(OCc3cccs3)cc2N)cc1 ?
VACV Venus inh: -12.9%; VACV mCherry inh: inactive

Results for COc1ccc(NC(=O)CC(C)C)c([N+](=O)[O-])c1 ?
VACV Venus inh: -18.5%; VACV mCherry inh: -13.2%

What do the screens show for `CC(=O)N1C(C)(C)CC(=NOC(=O)c2ccc(C)cc2)CC1(C)C`?
VACV Venus inh: -2.9%; VACV mCherry inh: -7.2%

Results for NC(c1ccccc1)c1csc(NC(=O)Nc2cccc(Cl)c2)n1 (configuration not stated) ?
VACV Venus inh: 10µM*; VACV mCherry inh: inactive

Results for N=C(N)c1ccccc1 ?
VACV Venus inh: -3.5%&-11.3%; VACV mCherry inh: -14.6%&-19.2%

What do the screens show for `CC(=O)c1sc(NC(=O)CS(=O)(=O)c2ccc(F)cc2)nc1C`?
VACV Venus inh: -13.9%; VACV mCherry inh: -14.6%

What do the screens show for `Cc1ccc2cc(CCNC(=O)c3cccc([N+](=O)[O-])c3)c(=O)[nH]c2c1C`?
VACV Venus inh: -7.7%; VACV mCherry inh: -16.9%

Results for COc1ccc(S(=O)(=O)N2CCCOC2CNC(=O)C(=O)NCc2ccco2)cc1 (configuration not stated) ?
VACV Venus inh: 5.1%; VACV mCherry inh: inactive

How did O=C(Nc1ccccn1)c1ccc(Cl)c(S(=O)(=O)N2CCCCCC2)c1 do in these assays?
VACV Venus inh: -14.8%; VACV mCherry inh: inactive

How did C#CCOC(=O)c1ccccc1C(=O)O do in these assays?
VACV Venus inh: -15.5%; VACV mCherry inh: -16.6%

How did Cc1ccc(N)c(C(=O)c2ccc(Br)cc2)c1 do in these assays?
VACV Venus inh: -20.7%; VACV mCherry inh: -10.3%

What do the screens show for `CCc1cc(C=C(Cl)Cl)oc(=O)c1C`?
VACV Venus inh: inconclusive; VACV mCherry inh: inconclusive

Results for CCOC(=O)c1sc(NC(=O)C2c3ccccc3Oc3ccccc32)c(C(=O)OCC)c1C ?
VACV Venus inh: -12.1%; VACV mCherry inh: -21.0%

Results for CC(C)OC(=O)C1C2C=CC3(CN(Cc4cccs4)C(=O)C13)O2 (configuration not stated) ?
VACV Venus inh: -4.8%; VACV mCherry inh: -13.7%

Results for COc1ccc(Cl)cc1NC(=O)Cn1c(=O)n(Cc2cccs2)c(=O)c2cccnc21 ?
VACV Venus inh: 0.5%; VACV mCherry inh: -11.9%

How did O=C1C=C(c2ccc3cc[nH]c3c2)C[C@@H](c2ccc3c(c2)OCO3)C1 do in these assays?
VACV Venus inh: inconclusive; VACV mCherry inh: inconclusive

How did CCOC(=O)c1cc(-c2ccccc2)sc1NC(=O)CCN1C(=O)c2ccccc2C1=O do in these assays?
VACV Venus inh: -15.2%; VACV mCherry inh: -15.3%

Results for Cc1ccnc(NC(=O)c2cccc(S(=O)(=O)Nc3ccc(C)cc3C)c2)c1 ?
VACV Venus inh: -11.1%; VACV mCherry inh: inactive
